# Screens as filed in PubChem.
# Hsc70 ATP site = small molecules displacing fluorescent ligand from Hsc70 – biochemical, fluorescence polarization, primary screen (AID 568) | 83,000 tested, under 10 active | Hsc70 fluorescence polarization, probe displacement; higher % means a stronger effect; strong numbers were not always called active | displacement, % at 20 µM, or IC50 in µM where a hit was titrated;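 active means displacement above 50% without optical interference and an IC50 on retest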;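 further: ATPase domain with a fluorescein-tagged ATP probe; 0% = vehicle and 100% = excess ADP; read after one hour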
# WNV NS2B-NS3 inh = WNV NS2B-NS3 proteinase inhibition. P06935. WNV NS2B-NS3 protease, fluorogenic substrate Ex360/Em465; stronger effect = lower value. z-score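 (tested at a level between 10 and 100 µM)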. hit rate 0.18% among 65,000. AID 577;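 active means z-score at -3 or under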;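 further: score is relative to mean and spread of the compound wells of a plate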
# Target sequence (P06935 1371-1501 limits assumed): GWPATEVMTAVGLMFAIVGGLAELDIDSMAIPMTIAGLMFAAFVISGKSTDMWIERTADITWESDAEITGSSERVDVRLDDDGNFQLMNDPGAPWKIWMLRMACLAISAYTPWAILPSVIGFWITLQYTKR
# Target sequence (P06935 1502-1679 limits assumed): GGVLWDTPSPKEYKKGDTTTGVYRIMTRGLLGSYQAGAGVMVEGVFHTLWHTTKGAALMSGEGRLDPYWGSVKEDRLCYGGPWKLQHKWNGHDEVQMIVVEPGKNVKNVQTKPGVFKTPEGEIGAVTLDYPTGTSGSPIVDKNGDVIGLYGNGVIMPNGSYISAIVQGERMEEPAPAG
# MT1-MMP promoter = MT1-MMP gene expression reporter suppression – cell-based, luciferase reporter, luminescence (AID 618); MT1-MMP promoter luciferase reporter cells, luminescence; calls from a first round at 10 µM; hits with a dose series show EC50 in µM; hit rate 0.62% among 87,000;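 active means over half of the reporter light lost at 10 µM or EC50 under 50 µM; inactive means the rest and hits that failed the dose series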;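 further: actives suppress MT1-MMP promoter-driven transcription so potencies describe inhibitors; HT1080 fibrosarcoma cells; overnight exposure; toxic or luciferase-blocking compounds were not removed from the actives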
# Numbers without * were called inactive; i = inactive; . = no result given.
SMILES,Hsc70 ATP site,WNV NS2B-NS3 inh,MT1-MMP promoter
O=C(CSc1nc(-c2cccs2)cc(C(F)(F)F)n1)NCc1ccco1,-4.1%,0.52,i
O=C(NC1CCCCCC1)c1ccc(N2CCCC2=O)cc1,1.8%,0.58,i
CCOC(=O)C1CCCN(C(=O)C2CC(=O)N(c3ccc(C)cc3)C2)C1 (stereo not given),-3.2%,1.6,i
Cc1cc(Oc2ccccc2F)nc(NCc2ccccc2)n1,3.9%,.,i
CCc1ccc(NC(=O)CSc2nnc(-c3cccs3)n2CC)cc1,2.6%,.,i
CCNC(=O)c1ccccc1-c1nc(-c2ccccc2Cl)no1,0.3%,0.79,i
Cn1nnnc1SCc1cn2cccnc2n1,-2.7%,0.02,i
N#CCC(=O)NCCCOC(=O)Nc1ccc(Cl)c(Cl)c1,-1.5%,0.39,i
CCOc1ccc(NC(=O)c2ccc(N)cc2)cc1,-0.3%,-0.87,i
COc1ccc(CNC(=O)C2COc3ccccc3O2)c(OC)c1 (stereo not given),6.5%,-0.83,i
Cn1c(SCc2nc3ccccc3[nH]2)nnc1-c1cccs1,-2.5%,-0.13,i
CCOc1ccc(NC(=O)CCS(=O)(=O)c2ccc3c(c2)CCCN3C(C)=O)cc1,-1.9%,1.5,i
Cc1cn(C2C=CC(CO)O2)c(=O)[nH]c1=O (stereo not given),-4.6%,0.38,i
COc1ccc(NC(=O)Nc2ccccc2OC)cc1,8.3%,.,i
O=C(NCCO)c1nc2ccccc2s1,-0.4%,.,i
NC(=O)NC(=O)COC(=O)CCCc1c[nH]c2ccccc12,7.0%,-0.34,i
N#Cc1ccccc1-n1c(N)c(C(=O)N2CCCC2)sc1=S,0.1%,-0.29,i
CCN1C(=O)C(O)(C2COC(C)(C)CC2=O)c2cc(Br)ccc21 (stereo not given),-0.5%,0.43,i
COc1ccc(S(=O)(=O)N(C)CC(=O)O)c2ccccc12,4.9%,-1.4,i
Cc1ccc(C(c2sc3ncnn3c2O)N2CC(C)CC(C)C2)cc1 (stereo not given),4.3%,0.4,i
Cn1nnnc1SCc1cc(=O)n2ccsc2n1,-1.8%,-1.6,i
CC(C)(C)NC(=O)Cn1nnc(-c2ccccc2Cl)n1,-1.8%,0.04,i
COc1ccc(OC)c2sc(NC(=O)C3=COCCO3)nc12,-0.3%,0.77,i
CC1(C)CC(=O)c2c(nc3ccccc3c2N)C1,2.0%,1.2,i
Cc1cc(C)nc(SCCCn2c(=O)[nH]c3ccccc32)n1,76%,2.2,i
Cc1nonc1NC(=O)Nc1cccnc1,-7.4%,-1.2,i
O=S(=O)(Nc1nc2ccccc2nc1NCCO)c1cccc(Cl)c1,3.8%,0.95,i
COc1cccc(N2C(=O)CC(N3CCN(C(=O)c4ccco4)CC3)C2=O)c1 (stereo not given),1.5%,.,i
COc1cccc(Cn2nnc(C(=O)Nc3cc(C)ccc3OC)c2N)c1,2.0%,-1.1,i
O=C(Oc1cccc(N2C(=O)CCC2=O)c1)C1CC(=O)N(c2ccc(F)cc2)C1 (stereo not given),0.8%,1.1,i
Cc1ccc(SCCNC(=O)c2ccccc2)cc1,-1.5%,.,i
COc1ccccc1N1CCN(C(=O)CSc2nc(-c3ccccc3)cc(=O)[nH]2)CC1,2.0%,0.18,i
O=C1/C(=C/c2cccnc2)Oc2cc(OS(=O)(=O)c3ccc(F)cc3)ccc21,-2.2%,.,i
O=c1c2c3c(sc2nc2n1CCCCC2)CCC3,-4.1%,.,i
Cc1nc2ccc(S(=O)(=O)Nc3ccccc3C)cc2s1,-4.8%,-1.2,i
Cn1c(SCC(=O)c2ccccc2)nnc1C1CC1,-9.3%,-1.1,i
COCCCNS(=O)(=O)c1ccc2c(c1)OCCO2,-9.5%,0.5,i
COc1cc(-c2nnc3sc(-c4cccnc4)nn23)cc(OC)c1OC,-2.4%,0.35,i
Cc1cc(C)n(CC(O)COc2cccc(OCC(O)Cn3nc(C)cc3C)c2)n1 (stereo not given),-3.3%,-0.59,i
COc1cccc(C2CC(C(F)(F)F)n3ncc(C(=O)O)c3N2)c1 (stereo not given),3.0%,-0.06,i
CCN1CCc2nc(NC(=O)Cc3ccc4c(c3)OCCO4)sc2C1,2.8%,0.07,i
O=C(NC(Cc1ccccc1)C(=O)O)c1ccc(S(=O)(=O)N2CCCC2)cc1 (stereo not given),-2.0%,-0.17,i
O=C(CN1C2=NCCN2c2ccccc21)C12CC3CC(CC(C3)C1)C2,-16%,-0.87,i
COc1ccc(NC(=O)CSc2nnc(-c3ccccn3)n2Cc2ccco2)cc1OC,-1.1%,.,i
NC(=O)C1(N2CCCCC2)CCN(CC(=O)Nc2cc(Cl)ccc2Cl)CC1,-3.3%,0.25,i
Cc1ccc(N2C(=O)c3ccc(N)cc3C2=O)cc1,-1.1%,1.1,i
CC(=O)Nc1ccc(C2(O)COc3ccccc3O2)cc1 (stereo not given),-5.6%,1.6,i
O=C(Nc1cccnc1)c1cn(-c2ccccc2)nc1-c1cccs1,-2.1%,0.68,i

# Quoted from above for reference:
SMILES,Hsc70 ATP site,WNV NS2B-NS3 inh,MT1-MMP promoter
CC(=O)Nc1ccc(C2(O)COc3ccccc3O2)cc1 (stereo not given),-5.6%,1.6,i
O=C(Nc1cccnc1)c1cn(-c2ccccc2)nc1-c1cccs1,-2.1%,0.68,i

# More compounds follow.
SMILES,Hsc70 ATP site,WNV NS2B-NS3 inh,MT1-MMP promoter
O=C(c1cc(Cl)ccc1Cl)N1CCN(c2ccccn2)CC1,-0.2%,1.1,i
Nc1nc(N2CCOCC2)cc(=O)[nH]1,1.5%,.,i
c1ccc2sc(N3CN(CCN4CCOCC4)CN(c4nc5ccccc5s4)C3)nc2c1,3.7%,-0.51,i
CC(C)N(CCNC(=O)C1CCN(S(=O)(=O)N2CCOCC2)CC1)Cc1ccccc1,-4.7%,-0.42,i
COc1ccc(OCCSc2ncn[nH]2)cc1,2.6%,.,i
CS(=O)(=O)Nc1ccc(-c2n[nH]c(=S)n2-c2ccccc2)cc1,1.3%,0.83,i
COc1ccc(CNC(=O)CCCCCn2c(SCC#N)nc3cc4c(cc3c2=O)OCO4)cc1,-8.2%,-0.39,i
COc1ccc(NC(=O)c2ccc(COc3ccccc3)o2)cc1,-3.2%,.,i
CCCC(C)NC1=NCCCCC1 (stereo not given),-1.5%,.,i
O=C(Nc1sc2c(c1C(=O)O)CCC2)c1cccs1,26%,0.3,i
CCOC(=O)Cc1cc(=O)n2[nH]c(C)c(-c3ccc(OC)cc3)c2n1,-4.0%,-0.62,i
O=c1oc2ccccc2c2c1ncn2-c1ccccc1,-0.4%,0.19,i
CCOC(=O)CSc1nnc(CNc2cccc(Cl)c2)n1-c1ccccc1,1.2%,0.007,i
Cc1ccc(NC(=O)Cn2nnc(C(=O)Nc3ccc(C)c(C)c3)c2N)cc1,0.7%,-0.6,i
CCOC(=O)C(C)Sc1nc2c(c(=O)[nH]c(=O)n2C)n1CCc1ccccc1 (stereo not given),2.2%,0.55,i
Cc1ccc(S(=O)(=O)NC(C)C(=O)Nc2ccc(C(N)=O)cc2)cc1 (stereo not given),3.2%,0.34,i
Oc1c(C(c2ccccc2)N2CCCCC2)sc2ncnn12 (stereo not given),8.0%,-0.74,i
CCCCCOC(=O)Nc1ccc(S(=O)(=O)Nn2cnnc2)cc1,4.2%,-1.2,i
CSCCC1NC2(C(=O)Nc3c2ccc(Cl)c3C)[C@@H]2C(=O)N(C3CCCC3)C(=O)[C@H]12 (stereo not given in full),1.9%,-0.08,i
Cc1c(O)ccc(C(=O)COc2ccccc2F)c1O,-6.1%,-0.19,i
COc1ccc(CN(C(=O)CN2C(=O)COc3ccccc32)C2CCCC2)c(OC)c1,-0.1%,0.16,i
Cc1c(C)[n+](=O)c(-c2ccc(F)cc2)c(C)n1[O-],-3.4%,-0.87,i
CC(Sc1c[nH]c2ccccc12)C(=O)O (stereo not given),4.6%,.,i
O=C1C2ON(c3ccccc3)C(c3cccnc3)C2C(=O)N1c1ccc(Cl)c(Cl)c1 (stereo not given),-6.6%,-0.1,i
COc1ccccc1NC(=O)Cn1nnc(-c2ccccc2NC(=O)c2cccs2)n1,-12%,-0.85,i
OC(COc1ccc2cc(Br)ccc2c1)CN1CCN(c2ccccn2)CC1 (stereo not given),-3.3%,-0.72,i
CCCCCCCc1nc2c(=O)[nH]c3ccccc3c2o1,8.4%,.,i
O=c1oc2ccccc2n1CSc1nc2ccccc2s1,-2.3%,0.3,i
COC(=O)Cc1c(C)nc2nc(-c3ccc(C)cc3)[nH]n2c1=O,-4.9%,.,i
CCCCOc1ccc(C(=O)OC(C)CN(C)C)cc1 (stereo not given),-1.8%,-0.5,i
CCN(CC)CCCN1C(=O)C(O)=C(C(=O)c2cc3cccc(OC)c3o2)C1c1ccncc1 (stereo not given),2.1%,-1.1,i
Cc1ccc(C(=O)O)cc1S(=O)(=O)N1CCOCC1,0.3%,0.95,i
CCOc1cccc(C(=O)Nc2ccc3oc(Cc4ccc(Cl)cc4)nc3c2)c1,2.2%,.,i
COc1ccccc1N(CN1C(=O)c2ccccc2C1=O)C(=O)c1cccnc1,4.3%,-1.1,i
COCCNC(=O)CN(C(=O)Cn1nnc2ccccc21)c1ccc(F)c(Cl)c1,-11%,1.3,i
CC(=O)OCc1c(COC(C)=O)[n+](=O)c2ccccc2n1[O-],2.0%,-0.27,i
CN(CCC#N)C(=O)Cn1nc(Cc2ccncc2)c2ccccc2c1=O,2.3%,-0.17,i
CCOc1cc(C(=S)N2CCOCC2)ccc1O,-7.4%,-0.44,i
COC(=O)Nc1sc2c(c1C(=O)NCc1ccco1)CCC2,4.9%,1.4,i
CCOC(=O)Cc1csc(NC(=O)c2cc(OC)cc(OC)c2)n1,2.1%,.,i
O=C1CC(O)(C(F)F)Oc2ccc3ccccc3c21 (stereo not given),-3.1%,-0.14,i
O=C(CSc1nncn1-c1ccccc1)Nc1ccc(N2CCOCC2)cc1,1.6%,.,i
CCN(C(=O)c1cn(C)c(=O)c2cc(OC)c(OC)cc12)c1cc(C)ccc1C,4.9%,0.04,i
Cc1cc(N2CCN(c3cccc(C(F)(F)F)c3)CC2)n2ncnc2n1,-10%,-0.77,i
CC1CCN(c2ccc(C(=O)O)cc2)CC1,-3.5%,-0.9,i
CC1(c2ccccc2)NC(=O)N(CC(=O)NC(=O)NCc2ccco2)C1=O (stereo not given),-0.3%,.,i
COc1ccc(C2N(C(=O)CN3CCOCC3)CCN2S(=O)(=O)c2ccccc2)cc1 (stereo not given),5.6%,-0.75,i
Cn1cnnc1SCc1ccccc1,0.7%,.,i
COC(=O)c1ccc(N/C(C)=C/C(=O)c2ccc(C)o2)cc1,-0.3%,0.57,i
O=C1c2ccccc2-c2nc3ncnn3c(-c3ccccc3)c21,-1.1%,0.71,i
CCOC(=O)Cn1nc(-c2ccc(F)cc2)oc1=O,5.5%,.,i
Cc1nc(C)c(C(=O)Nc2cccc(Cl)c2)o1,-2.8%,-0.65,i
CC1Cc2cc(-c3csc(NC(=O)Cc4cccs4)n3)ccc2N1S(C)(=O)=O (stereo not given),-6.5%,-1.1,i
C=CCOc1nc2c(c(=O)n(C)c(=O)n2C)n1Cc1ccc(Cl)cc1,0.2%,0.34,i
N#Cc1nc(-c2cccs2)oc1N1CCN(Cc2ccccc2)CC1,-5.0%,1.4,i
c1ccc(Nc2cc(Nc3ccccc3)[nH]n2)cc1,0.4%,0.53,i
CC(CC(=O)O)CC(=O)Nc1ccccc1C(=O)O (stereo not given),5.4%,0.45,i
COCCCn1c(SCC(=O)n2c(C)c(C)c3ccccc32)nnc1-c1ccoc1C,3.1%,-0.64,i
O=C(NCc1ccc2c(c1)OCO2)C1CCN(S(=O)(=O)c2cccc3nsnc23)CC1,0.1%,0.28,i
O=S(=O)(c1ccc(C2=CSC3=NCCN23)cc1)N1CCOCC1,-3.0%,-0.46,i

# Compounds shown so far that have fluorine (eleven):
SMILES,Hsc70 ATP site,WNV NS2B-NS3 inh,MT1-MMP promoter
O=C(CSc1nc(-c2cccs2)cc(C(F)(F)F)n1)NCc1ccco1,-4.1%,0.52,i
Cc1cc(Oc2ccccc2F)nc(NCc2ccccc2)n1,3.9%,.,i
O=C(Oc1cccc(N2C(=O)CCC2=O)c1)C1CC(=O)N(c2ccc(F)cc2)C1 (stereo not given),0.8%,1.1,i
O=C1/C(=C/c2cccnc2)Oc2cc(OS(=O)(=O)c3ccc(F)cc3)ccc21,-2.2%,.,i
COc1cccc(C2CC(C(F)(F)F)n3ncc(C(=O)O)c3N2)c1 (stereo not given),3.0%,-0.06,i
Cc1c(O)ccc(C(=O)COc2ccccc2F)c1O,-6.1%,-0.19,i
Cc1c(C)[n+](=O)c(-c2ccc(F)cc2)c(C)n1[O-],-3.4%,-0.87,i
COCCNC(=O)CN(C(=O)Cn1nnc2ccccc21)c1ccc(F)c(Cl)c1,-11%,1.3,i
O=C1CC(O)(C(F)F)Oc2ccc3ccccc3c21 (stereo not given),-3.1%,-0.14,i
Cc1cc(N2CCN(c3cccc(C(F)(F)F)c3)CC2)n2ncnc2n1,-10%,-0.77,i
CCOC(=O)Cn1nc(-c2ccc(F)cc2)oc1=O,5.5%,.,i

# (next part)
SMILES,Hsc70 ATP site,WNV NS2B-NS3 inh,MT1-MMP promoter
Cc1sc2nc(N)sc2c1C,-5.8%,0.46,i
O=C(NC1CCS(=O)(=O)C1)c1ccccc1C(=O)c1ccccc1 (stereo not given),0.5%,-0.33,i
COC(=O)CN(CCc1ccccc1)S(=O)(=O)c1ccc(OC)c(OC)c1,3.5%,.,i
COc1ccccc1-n1c(=O)[nH]c2c(C(N)=O)nc(CC(C)C)nc21,2.6%,0.02,i
